AmpC nodet inh – Promiscuous and Specific Inhibitors of AmpC Beta-Lactamase (assay without detergent); P00811; AmpC nitrocefin hydrolysis, absorbance 480 nm, no detergent; potencies from a single point are estimates; Potency, µM (top dose mostly 28.7 µM), for the others: at the highest dose activity change, negative = inhibition; 71,000 compounds, 1.8% hits; AID 585, 2007; active = falling curve, for most hits resting on a single point; inconclusive = weak or doubtful change; inactive = flat or rising curve; further: % of control where 0% means no effect; about half of the hits show no inhibition at the top dose; a quarter of the inactives give rising signals
Target sequence (P00811 whole entry, looked up): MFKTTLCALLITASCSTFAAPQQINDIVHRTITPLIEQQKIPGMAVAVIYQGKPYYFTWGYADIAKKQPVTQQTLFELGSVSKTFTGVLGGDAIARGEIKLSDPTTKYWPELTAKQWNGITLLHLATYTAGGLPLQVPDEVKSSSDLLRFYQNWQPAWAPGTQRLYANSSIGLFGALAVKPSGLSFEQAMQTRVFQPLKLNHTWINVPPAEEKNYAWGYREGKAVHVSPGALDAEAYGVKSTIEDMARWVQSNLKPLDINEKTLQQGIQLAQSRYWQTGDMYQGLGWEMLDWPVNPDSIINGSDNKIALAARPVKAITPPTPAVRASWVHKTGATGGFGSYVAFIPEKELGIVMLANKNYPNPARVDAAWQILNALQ
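AmpC in 20 mM phosphate buffer pH 7.0 was preincubated 15 min at room temperature with compounds. Nitrocefin (800 uM stock) was then added and hydrolysis followed at 480 nm every 20 s for 4 min.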
* = called active by the depositor; u = inconclusive; [ ] = remark or other dose. Potency means the concentration at half of the fitted maximal effect. An excerpt; count on the stated rates, not on these rows.

Start of the data: the first 5 compounds, to show the layout:
| Molecule | AmpC nodet inh |
| --- | --- |
| C#CCN1C(=O)C(O)(CC(=O)c2cc(OC)ccc2OC)c2ccccc21 (stereo unspecified) | 0% |
| N=c1c2c(n(Cc3ccccc3)c3c1CCC3)CCC2 | -7% |
| Cc1cc(NC(=O)CS(=O)(=O)c2cn(Cc3ccccc3Cl)c3ccccc23)no1 | -22% |
| CC(=O)NCCc1ccc(S(=O)(=O)NCc2ccc3c(c2)OCO3)cc1 | 18% |
| CCOC(=O)c1c(CN(C)C)oc2cc(CN(C)C)c(O)c(CSc3ccccc3)c12 | 90% |

All compounds of this part, repeating the preview:
| Molecule | AmpC nodet inh |
| --- | --- |
| C#CCN1C(=O)C(O)(CC(=O)c2cc(OC)ccc2OC)c2ccccc21 (stereo unspecified) | 0% |
| N=c1c2c(n(Cc3ccccc3)c3c1CCC3)CCC2 | -7% |
| Cc1cc(NC(=O)CS(=O)(=O)c2cn(Cc3ccccc3Cl)c3ccccc23)no1 | -22% |
| CC(=O)NCCc1ccc(S(=O)(=O)NCc2ccc3c(c2)OCO3)cc1 | 18% |
| CCOC(=O)c1c(CN(C)C)oc2cc(CN(C)C)c(O)c(CSc3ccccc3)c12 | 90% |
| CC(C)C1C(C#N)=C(N)SC(N)=C1C#N | -7% |
| CCCCNC(=O)c1nn(-c2ccccc2OC)c(=O)c2ccccc12 | 31% |
| Cc1ccc(-c2nnc(SCC(=O)N3c4ccccc4NC(=O)C3(C)C)n2N)cc1 | -10% |
| NC(=O)c1oc2ccccc2c1NC(=O)CCc1ccccc1 | -5% |
| O=C(Oc1ccc(N2C(=O)CCC2=O)cc1)c1ccco1 | -14% |
| O=C(NCC1(c2ccccc2)CCOCC1)c1ccc(Br)o1 | 20% |
| CCCn1c(=O)c(C(=O)Nc2nnc(C)s2)c(O)c2ccccc21 | -12% |
| O=C(COC(=O)c1ccco1)NCc1ccco1 | 46% |
| CCC1Oc2ccccc2N(CC(=O)Nc2ccccc2OC)C1=O (stereo unspecified) | 19% |
| COc1ccc(F)cc1S(=O)(=O)NC1CC(C)(C)NC(C)(C)C1 | -20% |
| COc1ncc2nc(-c3cc(F)cc(F)c3)c(=O)n(C3CC3)c2n1 | 8% |
| O=C1CCCN1c1ccc(S(=O)(=O)Nc2ccc3c(c2)OCCO3)cc1 | 2% |
| CCOc1ccc(NS(=O)(=O)N(C)C)cc1 | -3% |
| O=C1CC2(CCCC2)CC(=O)N1CCNC[C@H]1COc2ccccc2O1 | 44% |
| COCCNC(=O)CCc1nc(-c2ccccc2)no1 | -1% |
| NC1=NC(S)C2N=CN=C2N1 (stereo unspecified) | -9% |
| COc1ccc(NC(=O)Cn2nnc(C(=O)NCc3cccc(OC)c3)c2N)cc1 | -3% |
| COC(=O)CNc1c(-c2ccccn2)nc2ccc(Br)cn12 | 8% |
| Cc1cc(C(=O)CN2C(=O)C3CC=CCC3C2=O)c(C)n1-c1ccccc1 (stereo unspecified) | 66% |
| CC(Sc1nnc(COc2ccc3ccccc3c2)n1C)C(=O)O (stereo unspecified) | -10% |
| Cc1c2c(nc3nc4ccccc4n13)CC(C)(C)CC2=O | -3% |
| C1CCC(N=C(NC23CC4CC(CC(C4)C2)C3)N2CCOCC2)CC1 | 14% |
| Cc1c(C(=O)Nc2ccncc2)sc2nc(-c3ccc(F)cc3)cn12 | 12% |
| CCC(=O)Nc1cc(C)c(NC(=O)c2ccccc2OC)cn1 | -4% |
| C=CCNC(=O)N[C@@H](CCSC)C(=O)OC | -5% |
| O=C(Nc1ccccc1C(F)(F)F)N1CCCCCC1 | 3% |
| O=P(c1ccccc1)(c1ccccc1)C(O)c1ccncc1 (stereo unspecified) | 15% |
| Cc1ccc(S(=O)(=O)CC(=O)N2CCCCCC2)cc1 | 9% |
| CC(NC(=O)Nc1ccccc1)c1ccccc1 (stereo unspecified) | -2% |
| O=C(Nc1ccncc1)C1c2ccccc2Oc2ccccc21 | 3% |
| Cn1c(C[C@@H](O)c2nc3ccccc3n2C)nc2ccccc21 | 4%[5.75 µM] |
| CSc1cccc(NS(=O)(=O)c2ccc(F)cc2)c1 | -16% |
| CCCn1c(CN2CCN(C(=O)OCC)CC2)nc2c1c(=O)n(C)c(=O)n2C | -10% |
| CC(C)C[C@@H](CC(=O)N[C@@H](CCC(=O)O)CC(=O)O)NC(=O)[C@@H]1CNCC[C@H]1NC(=O)C[C@@H](NC(=O)C[C@H](Cc1c[nH]c2ccccc12)NC(=O)[C@@H]1CNCC[C@H]1N)C(C)C | 80% |
| Cc1ccc2c(c1)nnn2C1CCN(S(=O)(=O)c2ccc(C(=O)N3CC(C)CC(C)C3)cc2)CC1 (stereo unspecified) | 85% |
| O=C(O)CSCC(=O)O | 1%[5.75 µM] |
| O=C(c1ccccc1F)N1CCN=C1SCc1cccnc1 | 16% |
| CCc1nnc(NC(=O)CSc2nnc(-c3c[nH]c4ccccc34)n2C)s1 | 3% |
| O=C(COc1ccccc1)N(Cc1ccco1)c1ccc(O)cc1 | -6% |
| Cc1cc(C(=O)NCCCn2ccnc2)cs1 | -4% |
| CSc1nc2ccccc2n1C(=O)Oc1ccccc1 | 27% |
| Cc1cc(C)c(NC(=O)CSc2nc3c(c(=O)n2C)SC(C)C3)c(C)c1 (stereo unspecified) | 11% |
| O=c1c[n+]([O-])c2ccccc2n1OCc1c(F)cccc1F | 1% |
| Cc1ccccc1N(CC(=O)NCCc1ccccc1)C(=O)c1ccc(N2CCCC2)nc1 | 104% |
| O=C(O)CC(CC(=O)Nc1nncs1)c1ccccc1 (stereo unspecified) | -21% |
| Cc1cc2c(c(=O)n1Cc1ccccn1)C(C(C)C)C(C#N)=C(N)O2 (stereo unspecified) | 4% |
| COc1ccc(S(=O)(=O)Cc2ccc(C(=O)N3CCN(c4ccc(Cl)cc4)CC3)o2)cc1 | 84% |
| Cc1ccc(C)c(C(=O)CN2C(=O)CCC2=O)c1 | 1% |
| CN(C)c1nc(Oc2ccc(N)cc2)nc(N(C)C)n1 | 9% |
| COc1ccc(NC2=NCC(=O)N2c2ccccc2F)c(OC)c1 | -3% |
| CC(C)CNc1oc(-c2ccc(F)cc2)nc1C#N | 4µM*[single pt active] |

Additional records:
| Molecule | AmpC nodet inh |
| --- | --- |
| Cn1c(SCC(=O)N2CCc3ccccc3C2)nnc1-c1cccs1 | 18% |
| CC(C)c1ccc2c([Si](C)(C)C)c3c(nc2c1)-c1cccc(=O)n1C3 | 38% |
| CCn1nc(C(=O)OCC(=O)c2ccc3c(c2)OCCO3)c2ccccc2c1=O | 42% |
| CC(=O)CC(C)=NCCN=C(C)CC(C)=O | -5% |
| CCCC(=O)Nc1ccc2oc(-c3ccncc3)nc2c1 | 11% |
| Cc1ccc(C2(C)NC(=O)N(CC(=O)NC(=O)NC3CCCC3)C2=O)cc1 (stereo unspecified) | 42% |
| COc1ccc(OCC(=O)N2CCOCC2)cc1 | -5% |
| Cc1cc(OCC(O)CN(CCO)CCO)ccc1Cl (stereo unspecified) | 7% |
| CC1=C[N+](=O)c2ccccc2[N+]1=O | 10%[5.75 µM] |
| COc1ccc(Nc2nc(N)nc(CN3CCC(Cc4ccccc4)CC3)n2)cc1 | 49% |
| O=S1(=O)N=C(N2CCN(Cc3ccccc3)CC2)c2ccccc21 | -1% |
| COc1ccc2c(c[n+](C)c3c4cc5c(cc4ccc23)OCO5)c1OC | 20% |
| CC1CN(S(=O)(=O)c2cccc(C(=O)NCc3ccc4c(c3)OCO4)c2)CC(C)O1 (stereo unspecified) | 46% |
| COc1ccc(-c2cc(C(F)(F)F)nc(N3CCN(Cc4ccccc4)CC3)n2)cc1OC | 41% |
| Cc1ccc(CCC(=O)Nc2ccc(S(N)(=O)=O)cc2)o1 | -8% |
| Nc1nonc1C(=O)NC(c1ccccc1)c1ccccc1 | -10% |
| COc1ccc(-c2nnc3ccc(SCC(=O)N4CCOCC4)nn23)cc1 | -4% |
| CCn1c2ccccc2c2cc(NC(=O)CSc3nnc(C4CC4)n3Cc3ccco3)ccc21 | 3% |
| COCCn1c(=O)c(-c2cccs2)nc2cnc(OC)nc21 | 12% |
| COc1cc2cc(CN(CCCO)S(=O)(=O)c3ccccc3)c(=O)[nH]c2cc1OC | 65% |
| CC(C)c1nc(SCC(=O)N2CCCC2)c2ccccc2n1 | 38% |
| O=C(Nc1ccncc1)C1COc2ccccc2O1 (stereo unspecified) | -9% |
| CCOC(=O)C1CCN(Cc2ccc(O)c3ncccc23)CC1 | 5% |
| COc1ccc(CCNC(=O)c2cc(-c3ccc4c(c3)OCO4)on2)cc1OC | -1% |
| COC(=O)C(C)Sc1nc2c(cnn2-c2ccc(C)cc2)c(=O)[nH]1 (stereo unspecified) | 3% |
| O=C(O)c1ccccc1C(=O)Nc1ccccn1 | -3% |
| Cc1ccccc1CN1CCNC1=O | -5% |
| CN1C(=O)CC(N2CCN(CC(=O)N3CCCC3)CC2)C1=O (stereo unspecified) | -1% |
| O=C(Nc1nnc(-c2ccccc2Cl)o1)c1ccc(S(=O)(=O)N2CCCCCC2)cc1 | -9% |
| COc1ncccc1C(=O)NCC(CC(=O)O)c1ccccc1 (stereo unspecified) | -14% |
| CCOC(=O)C1CCN(S(=O)(=O)c2ccc3c4c(cccc24)C(=O)N3)CC1 | 17% |
| CCCc1nnc(NC(=O)CCN2C(=O)c3ccccc3C2=O)s1 | 4% |
| CC(C)OC(=O)c1cccc(C(=O)O)n1 | -2% |
| Cc1cc(NC(=O)c2ccc3c(c2)OCO3)no1 | -4% |
| CC12CC(NC(=O)N1c1cccc(C(=O)N3CCN(c4ccccc4F)CC3)c1)c1ccccc1O2 (stereo unspecified) | 112% |
| Cc1ccsc1C1C2=C(CC(C)(C)CC2=O)Nc2ncnn21 (stereo unspecified) | 13% |
| Cc1cccc(C)c1NC(=O)CSc1nnc(-c2ccco2)n1N | 106% |
| Cc1cc(C(=O)N(C2CCCCC2)C2CCCCC2)no1 | 16% |
| CCc1nc(N(CC)CC)c2oc3ccccc3c2n1 | 49% |
| O=C(CSc1ccc2nnc(-c3ccc(F)cc3)n2n1)NCC1CCCO1 (stereo unspecified) | -12% |
| O=C(CN1C(=O)c2ccccc2S1(=O)=O)NCc1ccccn1 | -2% |
| C=CCN(C(=O)CN1CCOCC1)c1nc(C)c(-c2ccccc2)s1 | 105% |
| NC(=O)C1(c2ccccc2)CCOCC1 | -6% |
| C(=N\n1cnnc1)/c1cccc(OCCOc2ccccc2)c1 | 39% |
| Cc1cc(OCC(=O)Nn2cnnc2)c(C)cc1Br | -3% |
| NCCC[C@@H](CC(=O)N[C@@H]1CCNC[C@H]1C(=O)N[C@H](CC(=O)N[C@@H](CCC(=O)O)CC(=O)O)Cc1c[nH]c2ccccc12)NC(=O)C[C@H](Cc1ccccc1)NC(=O)[C@@H]1CNCC[C@H]1N | 64% |
| Cc1cc(C)cc(NC(=O)CSc2nnc(-c3ccccc3)n2N)c1 | 15% |
| CC(NS(=O)(=O)c1ccccc1)C(N)=O (stereo unspecified) | 4% |

Looked up by structure from the entries so far:
| Molecule | AmpC nodet inh |
| --- | --- |
| CCCc1nnc(NC(=O)CCN2C(=O)c3ccccc3C2=O)s1 | 4% |
| COCCNC(=O)CCc1nc(-c2ccccc2)no1 | -1% |

Next entries
| Molecule | AmpC nodet inh |
| --- | --- |
| COc1cccc(-c2nc(NCCc3c[nH]c4ccc(OC)cc34)c3ccccc3n2)c1 | -24% |
| COc1cc(C)c(S(=O)(=O)n2ccc(C)n2)cc1C | 14% |
| O=C(NC1CCCCC1)c1ccc(S(=O)(=O)NCc2cccnc2)cc1 | -1% |
| COc1ccc(OC)c(NC(=O)C23CCC(C)(C(=O)O2)C3(C)C)c1 (stereo unspecified) | 23% |
| COc1ccc(S(=O)(=O)NCc2ccc(C(=O)O)cc2)cc1 | -9% |
| COc1ccc(CC(NC(C)=O)C(=O)N2CCN(C(=O)N(C(C)C)C(C)C)CC2)cc1 (stereo unspecified) | 62% |
| O=C(CCCN1CCC(O)(c2ccc(Br)cc2)CC1)c1ccc(F)cc1 | 2%[12.8 µM] |
| COc1ccc(NC(=O)CNS(=O)(=O)c2ccc3nc(C)sc3c2)c(OC)c1 | 5% |
| CCOc1ccc(C)cc1S(=O)(=O)n1ccc(C)n1 | 14% |
| COc1ccc(-n2c(SCC(=O)Nc3nccs3)nc3c(c2=O)SC(C)C3)cc1 (stereo unspecified) | 111% |
| COc1ccc(S(=O)(=O)N2CCN(c3ccccn3)CC2)cc1OC | 34% |
| COCCCNC(=O)c1ccc2c(c1)OCO2 | -10% |
| CSc1nnc(-c2cccs2)n1-c1ccccc1 | 11% |
| CCCCCc1c(O)nc(SCC(=O)NCC2CCCO2)[nH]c1=O (stereo unspecified) | -3% |
| COc1cccc(NC(=O)CN2C(=O)COc3ccc(Cl)cc32)c1 | -5% |
| CCCn1nc(CC(=O)O)c2ccccc2c1=O | -5% |
| CC1CCN(C(=S)c2ccccc2O)CC1 | -8% |
| CCOc1ccccc1C(=O)N(CN1CCCC1=O)c1cccc(Cl)c1 | 30% |
| COCC(C)NC(=O)C1CC(=O)N(c2ccc(C)cc2)C1 (stereo unspecified) | 16% |
| CN1CCN(S(=O)C23CC4CC(CC(C4)C2)C3)CC1 (stereo unspecified) | 10% |
| C=CCn1c(SCC(=O)c2ccc(OC)cc2)nnc1C(C)NC(=O)c1cccs1 (stereo unspecified) | u |
| COC(=O)c1nc(-c2ccccc2)n[nH]1 | -11% |
| COc1cc(OC)c(NC2=NCCCCC2)cc1Cl | -3% |
| Cc1nn(-c2ccccc2)c2sc(C(=O)NC3CCCCC3)cc12 | 0% |
| Cc1ccc(S(=O)(=O)NCCC(=O)NCCN2CCCCCC2)cc1 | 7% |
| Cc1ccc(C)c(C(=O)CSc2n[nH]c(-c3ccncc3)n2)c1 | -4% |
| Cc1ccc(/C(O)=C2/C(=O)C(=O)N(CCCn3ccnc3)C2c2cccnc2)cc1 (stereo unspecified) | -1% |
| Nc1cc(S(N)(=O)=O)ccc1SSc1ccc(S(N)(=O)=O)cc1N | -2%[5.75 µM] |
| COc1ccccc1NC(=O)N1CCCC(c2nc3c(nnn3Cc3ccc(C)cc3)c(=O)[nH]2)C1 (stereo unspecified) | 68% |

Bioassay records: PubChem BioAssay, National Center for Advancing Translational Sciences (NCATS)
